Assay outcomes deposited in PubChem by ICCB-Longwood Screening Facility, Harvard Medical School.
HCMV NEC inh = inhibitors of HCMV UL50-UL53 interaction, biochemical, HTRF; inhibition, % (no concentration beside the values); normalized percent inhibition; actives 0.15% (n = 190,000); HCMV UL50-UL53 nuclear egress complex (human cytomegalovirus);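 active = both replicates at 50% or more, plus weaker picks with an unusually low signal ratio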;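 note: stock transfer was 100 nL into about 20 µL; 0% = negative control wells and 100% = wells with untagged competitor protein; inactives centre near -12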
GIV-Gai inh = inhibitors of GIV peptide binding to Galpha-i3, primary screen, biochemical, fluorescence polarization, FITC-GIV GBA peptide, rat Galphai3. actives 0.42% (n = 210,000). Guanine nucleotide-binding protein G(i) subunit alpha-3 (Rattus norvegicus), P08753. 90 min; hits give low values; scaled: aluminum fluoride 0%, vehicle 100%. percent of control (FP), % (concentration not given with the values);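 active = replicate mean at 85% of control or lower, very high polarization wells dropped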;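 note: wells of about 15 µL received 100 nL stock; the first replicate is given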
Target sequence (P08753 whole entry, looked up): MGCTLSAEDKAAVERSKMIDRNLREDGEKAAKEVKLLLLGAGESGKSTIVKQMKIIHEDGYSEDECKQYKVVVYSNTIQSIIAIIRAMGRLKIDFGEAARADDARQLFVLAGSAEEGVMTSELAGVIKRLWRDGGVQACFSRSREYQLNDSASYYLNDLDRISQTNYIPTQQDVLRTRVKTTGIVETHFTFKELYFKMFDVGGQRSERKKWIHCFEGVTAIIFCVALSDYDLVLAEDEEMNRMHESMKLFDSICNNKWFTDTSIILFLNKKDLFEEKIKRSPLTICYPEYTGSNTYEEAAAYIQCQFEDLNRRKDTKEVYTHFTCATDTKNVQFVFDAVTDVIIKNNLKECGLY
Sa growth inh = S. aureus growth inhibition at 42 and 30 °C, primary screen, LtaS inhibitor project, RN4220, two temperatures; relative growth, % (test concentration not listed); actives 0.53% (n = 170,000); OD600, 20 h, 42 °C; hits give low values;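 active = growth at 42 °C up to 50% and 20 or more points under that at 30 °C, or under 10% at both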;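 note: 300 nL library stock went into each well; scaled to the means of positive and negative controls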
Sa growth inh second temp = second read-out of Sa growth inh, no call of its own (marks repeat the call); relative growth, %; measured here: growth at 30 °C;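 optical density after 20 h as mean of two plates; 100% = untreated growth and lower means inhibition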
The depositor's hits bear a star; / = no result given.

cpd | SMILES | HCMV NEC inh | GIV-Gai inh
1 | CCN(CC)S(=O)(=O)c1cccc(S(=O)(=O)c2ccc(C)c(S(=O)(=O)N(CC)CC)c2)c1 | -4 | 107
2 | CCC(=O)Nc1ccccc1C(=O)OCC(=O)Nc1ccc(S(N)(=O)=O)cc1 | / | 100
3 | CCCCOc1nnc(-c2ccc(C)cc2)c2ccccc12 | -21 | 98
4 | CSc1ncc(CO)n1Cc1ccccc1 | -1 | 104
5 | CCn1c(=O)c(=O)n(CC)c2cc(N3CCCCC3)c(NC(=O)c3ccc(OC)c(OC)c3)cc21 | -3 | 102
6 | Cc1ccc(N(CC(=O)Nc2cccc(Cl)c2C)S(=O)(=O)c2c(C)noc2C)cc1 | -20 | 99
7 | O=C(Nc1cccc2nsnc12)C1CCN(S(=O)(=O)N2CCCC2)CC1 | -66 | 102
8 | COc1ccc(NC(=O)CCCS(=O)(=O)c2nc(-c3ccc(OC)c(OC)c3)cc(C(F)(F)F)n2)cc1OC | -17 | 107
9 | COc1ccc(Cl)cc1N(C)C(=O)Cn1nc(Cc2ccncc2)c2ccccc2c1=O | 0 | 103
10 | Cc1ccccc1NC(=O)Cn1cc2c(n1)CCCCC2 | -19 | 100

cpd | Sa growth inh | Sa growth inh second temp
1 | 107 | 111
2 | 116 | 75
3 | / | /
4 | / | /
5 | 102 | 90
6 | 111 | 97
7 | / | /
8 | 85 | 59
9 | 91 | 86
10 | 89 | 85

Entries of single compounds, looked up by structure. Order of screens: HCMV NEC inh	GIV-Gai inh	Sa growth inh	Sa growth inh second temp
Listed for `CCN(CC)S(=O)(=O)c1cccc(S(=O)(=O)c2ccc(C)c(S(=O)(=O)N(CC)CC)c2)c1` → -4	107	107	111
Listed for `CCC(=O)Nc1ccccc1C(=O)OCC(=O)Nc1ccc(S(N)(=O)=O)cc1` → /	100	116	75
Listed for `COc1ccc(Cl)cc1N(C)C(=O)Cn1nc(Cc2ccncc2)c2ccccc2c1=O` → 0	103	91	86
Listed for `CCCCOc1nnc(-c2ccc(C)cc2)c2ccccc12` → -21	98	/	/
Listed for `CSc1ncc(CO)n1Cc1ccccc1` → -1	104	/	/

(more compounds)
cpd | SMILES | HCMV NEC inh | GIV-Gai inh
11 | O=C(CCN1C(=O)/C(=C/c2ccc3c(c2)OCO3)SC1=S)Nc1ccc([N+](=O)[O-])cc1O | -12 | 104
12 | COc1ccc2c(c1)CCN(Cc1cc3sccc3n1CC1CCCCC1)C2 | -12 | 106
13 | Cc1ccc(CNC(=O)c2ccc3c(=O)n4c(nc3c2)CCCCC4)cc1 | 2 | 105
14 | Cc1cc(-c2nnnn2-c2ccc(C(F)(F)F)cc2)no1 | 6 | 104
15 | O=C(NCCc1ccccc1)c1ccc(CSc2nc3ccncc3n2Cc2ccc(F)cc2)cc1 | -19 | 104
16 | CCc1cccc(NC(=O)C(Cc2ccccc2)NS(=O)(=O)c2ccc3c(c2)CCC(=O)N3)c1 (stereo not drawn) | / | 106
17 | CCN(CC)S(=O)(=O)c1ccc(N=Nc2c(C)nn(-c3ccccc3)c2N)cc1 | -48 | /
18 | CCOc1ccccc1NS(=O)(=O)c1cnc(N)nc1 | / | 105
19 | O=C(N/C=N/O)c1ccccc1-n1ccnc1 | -1 | 103
20 | CC1(C)CC(=O)C=C(NCc2ccc(C(=O)O)cc2)C1 | -1 | /

cpd | Sa growth inh | Sa growth inh second temp
11 | / | /
12 | 89 | 57
13 | 104 | 90
14 | 110 | 101
15 | 127 | 106
16 | 103 | 90
17 | 108 | 99
18 | 85 | 81
19 | / | /
20 | 120 | 83

The list goes on:
cpd | SMILES | HCMV NEC inh | GIV-Gai inh
21 | Cn1c(=O)c(-c2noc(C(=O)N3CCC(c4ccccc4)C3)n2)nn(-c2ccccc2)c1=O (stereo not drawn) | -83 | 102
22 | CCCC(=O)N(Cc1nc2nc(C)cc(C)n2n1)c1ccccc1 | -3 | 108
23 | COc1ccc(CC(=O)Nc2ccc3nc(NS(C)(=O)=O)sc3c2)cc1OC | -34 | 102
24 | Cc1nc2c(C(=O)NCC3CCCO3)cnn2c(C)c1Cc1ccccc1Cl (stereo not drawn) | / | 103
25 | COc1ccc(C(=O)Oc2c(Sc3ccccc3)c(C)nn2-c2ccccc2)cc1OC | -2 | 105
26 | CS(=O)(=O)c1ccc(C(=O)O)c(O)c1C(=O)O | 0 | /
27 | CCOC(=O)C1CCN(C(=O)CCS(=O)(=O)c2ccc3c(c2)CC(C)N3C(=O)CC)CC1 (stereo not drawn) | -23 | 99
28 | O=C(c1c[nH]c2ccccc12)C1CCCCC1 | -5 | 97
29 | CCc1ccccc1NC(=O)c1cc2c(=O)n3ccccc3nc2n1C | / | 107
30 | O=C(CN1C(=O)C2CCCCN2c2ccc(C(=O)N3CCCCC3)cc21)N1CCCCC1 (stereo not drawn) | -4 | 107

cpd | Sa growth inh | Sa growth inh second temp
21 | / | /
22 | / | /
23 | / | /
24 | 101 | 82
25 | 88 | 59
26 | 95 | 85
27 | 90 | 79
28 | 83 | 67
29 | 91 | 90
30 | / | /

Other entries
cpd | SMILES | HCMV NEC inh | GIV-Gai inh
31 | CCN(C(=O)Cn1ncc2c(=O)oc3ccc(C)cc3c21)c1cc(OC)ccc1OC | -40 | 106
32 | Cc1[nH]c2ccccc2c1Cc1nc2ccccc2[nH]1 | / | 114
33 | CC1CC(C)CN(Cc2csc3c2CCCC3)C1 (stereo not drawn) | -3 | 107
34 | Cc1cc(C)n(CCc2nc3c4ccccc4nc(N4CCN(c5ccccc5F)CC4)n3n2)n1 | -9 | 100
35 | CCCNc1ncnc2onc(-c3ccc(F)cc3)c12 | -26 | 102
36 | Cc1cc(-c2ccc(Cl)cc2)nc2c1c(C)nn2CCO | -12 | /
37 | O=C(CSc1nncs1)NCc1cccs1 | 10 | /
38 | Nc1nc(Sc2nc3cc(Cl)ccc3s2)n[nH]1 | -20 | 105
39 | CCCn1c(NC(=O)Cc2coc3ccc4ccccc4c23)nc2ccccc21 | 3 | /
40 | Cc1ccc2c(c1)N(C(=O)Nc1ccccc1)CC(C)O2 (stereo not drawn) | / | 96

cpd | Sa growth inh | Sa growth inh second temp
31 | 96 | 87
32 | 90 | 89
33 | 97 | 96
34 | 98 | 89
35 | 90 | 91
36 | 105 | 78
37 | 118 | 99
38 | 90 | 74
39 | 33 | 17
40 | 103 | 75

Continuation.
cpd | SMILES | HCMV NEC inh | GIV-Gai inh
41 | CCOC(=O)c1[nH]c2ccccc2c1NC(=O)c1cc(Cl)ccc1Cl | -13 | 107
42 | CSc1nc2nc(C)cc(C)n2n1 | -13 | 104
43 | CC(C)(C)c1cc(C(C)(C)C)cc(S(=O)(=O)CCc2ccccn2)c1 | / | 99
44 | COc1cc(OC)c(NC(=O)NCc2cccn2Cc2ccccc2)cc1Cl | / | 107
45 | CCS(=O)(=O)Nc1ccc(C(=O)NC2CC2)cc1 | -29 | 107
46 | COc1ccc(-c2noc(CNC(=O)c3cc(OC)c(OC)c(OC)c3)n2)cc1 | -20 | 104
47 | COc1cc(NC(=O)CN2CCCN(Cc3cccc(F)c3)S2(=O)=O)cc(OC)c1 | / | 97
48 | CC1CN(C)C(C)CC1OC(=O)c1ccccc1Cl (stereo not drawn) | 11 | 98
49 | COc1cccc(N2C(=O)c3cccnc3C2Nc2ccc(C)c(C)c2)c1 (stereo not drawn) | -17 | 104
50 | CC(=O)OCC12CC=C(C)C(C1)C(c1ccccc1OC(C)=O)OC2 (stereo not drawn) | 2 | 105

cpd | Sa growth inh | Sa growth inh second temp
41 | 95 | 95
42 | 78 | 109
43 | 114 | 65
44 | 121 | 92
45 | 103 | 102
46 | 82 | 88
47 | 106 | 84
48 | 104 | 89
49 | / | /
50 | 112 | 98

The results go on:
cpd | SMILES | HCMV NEC inh | GIV-Gai inh
51 | CC/C(Cc1ccccc1)=N\NC(=O)Cn1nnc2ccccc21 | -12 | /
52 | O=C(Nc1ccc(Cl)cc1F)c1cc(S(=O)(=O)NCc2ccc3c(c2)OCO3)ccc1F | / | 104
53 | Cc1ccc2c(COC(=O)CNC(=O)c3ccco3)cc(=O)oc2c1C | -28 | /
54 | O=C(CN1CCN(c2ccc(F)cc2)CC1)N1c2ccccc2CCc2ccccc21 | 0 | 98
55 | COC(=O)c1c(C)oc2ccc(N(C(=O)c3ccncc3)S(=O)(=O)c3ccc(OC)cc3)cc12 | -6 | 106
56 | Cn1c(C(=O)O)c(CC(=O)N2CCCCCC2)c2ccccc21 | / | 104
57 | COc1ccc(C(=O)Nc2ccc(-c3nc4ncccc4o3)cc2)cc1 | -13 | 106
58 | CCOC(=O)c1ccc(N2C(=O)c3n[nH]c(C)c3C2c2ccc(Cl)cc2Cl)cc1 (stereo not drawn) | -7 | 113
59 | Cc1ccc(S(=O)(=O)NC(=O)N2CCCN(c3ccc(C(F)(F)F)cn3)CC2)cc1 | 1 | 109
60 | CCN1CCCC1CNCc1cccc(OC)c1OC (stereo not drawn) | -19 | 102

cpd | Sa growth inh | Sa growth inh second temp
51 | 93 | 91
52 | 126 | 92
53 | 100 | 98
54 | / | /
55 | 98 | 95
56 | 134 | 89
57 | 107 | 94
58 | 98 | 106
59 | 119 | 84
60 | 86 | 91

Going on with the list.
cpd | SMILES | HCMV NEC inh | GIV-Gai inh
61 | COc1cc(C#N)ccc1OCC(=O)NC(C)c1ccc2c(c1)OCO2 (stereo not drawn) | -7 | /
62 | CCOc1ccc(NC(c2ccc(Cl)cc2)c2nnc(-c3cccc(F)c3)o2)cc1 (stereo not drawn) | -10 | 103
63 | O=C(Nc1ccc2c(c1)OCCO2)c1cccs1 | -1 | 107
64 | COc1ccccc1N1CCN(C(=O)c2oc3ccccc3c2N)CC1 | -43 | 97
65 | Cn1c(=O)[nH]c(=O)c2c1nc(N(CCO)Cc1ccccc1)n2CCCc1ccccc1 | -5 | 106
66 | COc1ccccc1NC(=O)Cn1cnc2c(cnn2C(C)(C)C)c1=O | / | 99
67 | NC(=O)CC1C(=O)N(c2ccc(F)cc2)C(=O)N1NC(=O)CCc1ccccc1 (stereo not drawn) | -24 | 102
68 | Cc1nc(SCC(=O)C(C)(C)C)[nH]c(=O)c1Cc1c(Cl)cccc1Cl | -44 | 99
69 | CCCc1cnc2c(c1SCC(=O)N(C)c1ccccc1)c(=O)n(C)c(=O)n2C | / | 107
70 | O=C(Nc1cccc(OC(=O)c2ccco2)c1)c1ccccc1 | -2 | 103

cpd | Sa growth inh | Sa growth inh second temp
61 | 84 | 93
62 | 104 | 89
63 | 106 | 78
64 | 109 | 76
65 | 107 | 70
66 | 89 | 81
67 | 101 | 101
68 | 85 | 87
69 | 102 | 101
70 | 112 | 83

Other entries follow.
cpd | SMILES | HCMV NEC inh | GIV-Gai inh
71 | NC(=O)c1c(C(F)(F)F)cc[nH]c1=O | 6 | 106
72 | O=S(=O)(NCCn1c(-c2ccncc2)nc2cccnc21)c1ccc(Cl)cc1 | 0 | 105
73 | CCOC(=O)c1c(NC(=O)c2ccc(S(=O)(=O)N(CC(C)C)CC(C)C)cc2)sc2c1CCN(CC)C2 | / | 220
74 | N#C/C(=C1/CCCCCN1)c1nc2ccccc2s1 | 8 | /
75 | Cc1ccc(CNC(=O)c2cc3c(=O)oc4ccc(C)cc4c3s2)cc1 | -40 | 104
76 | CCOC(=O)c1nc(N)c(=O)n(-c2ccccc2)n1 | -39 | 106
77 | CC1CCN(C(=O)CSc2nc3cc4c(cc3c(=O)n2CCC2=CCCCC2)OCO4)CC1 | / | 102
78 | CC(=O)Nc1ccc(C(=O)COc2ncnc3c2cnn3-c2ccccc2)cc1 | -17 | /
79 | CCc1cc2c(cc3n2CC(C)(C(=O)NC2CCCCC2)N(CCN2CCOCC2)C3=O)s1 (stereo not drawn) | -16 | 99
80 | CCC(=O)Oc1ccc(C2CC(=O)c3c(ccc4ccccc34)N2)cc1OC (stereo not drawn) | -19 | /
81 | O=C(O)C1C2C=CC(C2)C1C(=O)NNc1ncnc2ccccc12 (stereo not drawn) | -4 | /
82 | CCCNS(=O)(=O)c1ccc(-c2cc(C(F)(F)F)on2)o1 | -11 | 103
83 | Cc1ccc2[nH]c(O)c(N=NC(=O)c3nc4ccccc4c(=O)[nH]3)c2c1 | -23 | /

cpd | Sa growth inh | Sa growth inh second temp
71 | 100 | 96
72 | / | /
73 | 100 | 94
74 | 91 | 94
75 | 105 | 87
76 | 105 | 84
77 | 102 | 94
78 | 81 | 96
79 | / | /
80 | 91 | 92
81 | 108 | 89
82 | / | /
83 | 113 | 107

Looked up above.
no. 77 – GIV-Gai inh: 102
no. 80 – Sa growth inh: 91
no. 82 – HCMV NEC inh: -11
no. 72 – GIV-Gai inh: 105
no. 73 – Sa growth inh: 100

2 records drawn at random from the list so far:
cpd | SMILES | HCMV NEC inh | GIV-Gai inh
81 | O=C(O)C1C2C=CC(C2)C1C(=O)NNc1ncnc2ccccc12 (stereo not drawn) | -4 | /
79 | CCc1cc2c(cc3n2CC(C)(C(=O)NC2CCCCC2)N(CCN2CCOCC2)C3=O)s1 (stereo not drawn) | -16 | 99

cpd | Sa growth inh | Sa growth inh second temp
81 | 108 | 89
79 | / | /
